Mtb MbtI inh = inhibitors of Mycobacterium tuberculosis siderophore enzyme MbtI; P9WFX0; purified MbtI enzyme, fluorescence intensity read-out; inhibition, %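 (about 17 µg/mL by stock and volumes)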; 0.89% of 100,000 active;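 active means above 50% in both replicates, above 80% if mildly self-fluorescent; inactive means the rest, strongly fluorescent compounds included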;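 further: 0% = mean of negative and 100% = mean of positive controls; one replicate is shown; some compounds called inactive have numbers as strong as hits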
Target sequence (P9WFX0 whole entry, looked up): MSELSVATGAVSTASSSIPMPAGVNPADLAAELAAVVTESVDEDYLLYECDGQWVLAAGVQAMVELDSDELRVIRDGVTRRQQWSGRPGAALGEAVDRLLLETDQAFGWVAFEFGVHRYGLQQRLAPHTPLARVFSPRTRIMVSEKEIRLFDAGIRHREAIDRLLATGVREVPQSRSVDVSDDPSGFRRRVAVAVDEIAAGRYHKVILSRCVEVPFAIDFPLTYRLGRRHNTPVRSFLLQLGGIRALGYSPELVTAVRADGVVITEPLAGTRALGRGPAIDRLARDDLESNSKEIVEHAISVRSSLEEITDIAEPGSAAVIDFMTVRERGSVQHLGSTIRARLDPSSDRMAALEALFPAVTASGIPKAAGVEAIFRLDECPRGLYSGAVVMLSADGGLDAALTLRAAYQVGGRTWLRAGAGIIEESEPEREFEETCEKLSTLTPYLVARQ
Mtb MenB inh = blocks the Mycobacterium tuberculosis MenB enzyme; MenB enzyme assay, absorbance read-out; some hits fall short of the stated cut; inhibition, %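 (about 12 µg/mL by stock and volumes)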; 0.43% of 100,000 active; P9WNP5;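 active means mean of two replicates above 30%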;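 further: 0% = no compound and 100% = wells with inactive enzyme; the first replicate is given; strong numbers were not always called active; inactives centre near -10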
Polio RdRp inh = poliovirus RNA polymerase inhibition | 0.66% of 150,000 active | AID 588519 | poliovirus polymerase elongation, fluorescence polarization; active compounds read low | % elongation, % (compound at 16.7 µg/mL) | P03300; in the data active means % elongation below about 90%; further: some results filed as inactive read as strong as hits
Target sequence (P03300 1749-2209 limits assumed): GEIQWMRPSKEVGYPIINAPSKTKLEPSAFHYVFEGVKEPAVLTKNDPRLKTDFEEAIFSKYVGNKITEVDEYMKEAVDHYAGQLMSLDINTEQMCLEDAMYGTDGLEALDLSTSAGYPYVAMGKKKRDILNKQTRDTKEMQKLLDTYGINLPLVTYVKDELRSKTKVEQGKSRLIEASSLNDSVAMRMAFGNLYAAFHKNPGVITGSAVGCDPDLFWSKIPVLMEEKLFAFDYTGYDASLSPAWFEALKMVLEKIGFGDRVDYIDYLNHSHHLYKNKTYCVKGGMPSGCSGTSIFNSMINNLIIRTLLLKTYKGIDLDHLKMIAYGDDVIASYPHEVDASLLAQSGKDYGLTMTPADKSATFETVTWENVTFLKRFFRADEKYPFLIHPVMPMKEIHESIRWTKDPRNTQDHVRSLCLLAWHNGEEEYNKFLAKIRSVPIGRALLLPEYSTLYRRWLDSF
Polio RdRp inh intensity = second read-out of Polio RdRp inh, no call of its own (marks repeat the call); % elongation; measured here: total intensity read-out; formula for this scale not given here;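 total fluorescence in place of polarization; lower means less elongation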
* = called active by the depositor; i = inactive; . = not tested or not shown.

Values run as follows: Mtb MbtI inh, Mtb MenB inh, Polio RdRp inh, Polio RdRp inh intensity
Cc1ccc(-n2c(C)cc(C(=O)COC(=O)c3ccco3)c2C)cc1
    -5, -29, 104, 108
Nc1c(Br)cc2oc(-c3ccccc3F)nc2c1Br
    -6, ., 105, 108
COc1ccc(NC(=O)CNNc2ccc(S(N)(=O)=O)cc2)cc1
    7, -19, 104, 105
Cn1c(Cn2cnc3ccccc32)nnc1SCC(=O)CC(=O)Nc1ccccc1
    21, -19, 102, 103
c1ccc(OCc2nc3c4c5c(sc4ncn3n2)CCCC5)cc1
    -5, 10, 99, 103
CC[N+](CC)(CC)Cc1ccccc1
    -6, ., 100, 106
O=C(OCc1ccccc1F)c1ccc2c(c1)OCCO2
    5, -17, 106, 109
CCSC1=NC2(CCN(S(C)(=O)=O)CC2)N=C1c1ccccc1
    -8, -33, 104, 103
CCOC(=O)C1=C(CN(C)Cc2ccc(C)cc2)NC(=O)NC1CC (configuration not stated)
    -8, -33, 103, 100
CC(Cc1ccco1)NC(=O)c1ccc(NC(=O)C2=CSCCO2)cc1 (configuration not stated)
    9, -12, 100, 102
Nc1nc(SC/C=C/c2ccccc2)nc2sc3c(c12)CCCC3
    16, 4, 101, 101
CCOc1ccc(Oc2nnc(C)c3ccccc23)cc1
    16, -22, 104, 110
Cc1cccc(-n2c(N)cc(=O)[nH]c2=S)c1
    7, -28, 101, 95
CCCn1c(N)c(C(=O)CN2CCCc3ccccc32)c(=O)n(C)c1=O
    -9, -8, 107, 117
COCCN(Cc1nc2ccccc2c(=O)[nH]1)C(=O)c1ccc(C)s1
    5, -7, 102, 108
Cc1ccc(C(CNC(=O)C(C)C)N2CCN(C)CC2)cc1 (configuration not stated)
    -3, -24, 107, 98
O=C1NC(=O)/C(=C/c2cccc(OC(=O)c3ccco3)c2)S1
    15, -1, 97, 102
CCOC(=O)c1cnc2ccc(C(=O)OC)cc2c1N1CC2(C)CC1CC(C)(C)C2 (configuration not stated)
    -5, 3, 101, 104
CN1/C(=C\C(=O)COC(=O)c2cccnc2)C(C)(C)c2ccccc21
    -2, -9, 149, 180
O=C(c1ccccc1)C(Sc1nnc(-c2ccco2)o1)c1ccccc1 (configuration not stated)
    1, -21, 106, 97
COCCn1c(-c2ccncc2)nn(CN2CC(C)OC(C)C2)c1=S (configuration not stated)
    15, -20, 106, 104
O=C(NC1CCS(=O)(=O)C1)c1ccccc1C(=O)c1ccccc1 (configuration not stated)
    -5, 3, 102, 100
O=S(=O)(c1ccc(Br)cc1)N1CCC(N2CCCCC2)CC1
    -6, 4, 99, 103
CC(=O)Nc1nc2ccccc2s1
    ., 5, 100, 106
COc1ccc(-c2nn(CN3CCCC3)c(=S)n2CC(C)C)cc1
    10, -21, 105, 109
O=C(Nc1ccc(F)cc1)N1CCN(c2ccc3nnc(-c4ccccc4)n3n2)CC1
    -11, 11, 100, 101
O=C(COc1ccc2c(c1)OCO2)Nc1cc(Cl)cc(Cl)c1
    -11, -69, 102, 103
CCCCn1c(N)c(N(Cc2ccccc2)C(=O)COc2ccccc2F)c(=O)[nH]c1=O
    5, 7, 103, 103
CCSc1ccc2nnc(-c3ccc(OC)cc3)n2n1
    -4, -8, 102, 105
CCCCN1C(=O)C(O)(CC(=O)c2ccccc2)c2ccccc21 (configuration not stated)
    -10, ., 102, 95
Cn1c(=N)n(CC(=O)c2ccco2)c2ccccc21
    -1, -22, 101, 103
Cc1cccc(NC(=O)CS(=O)(=O)c2cn(C)c3ccccc23)c1C
    -4, 6, 99, 101
Cn1c(C(O)C(O)c2ccccc2)nc2ccccc21 (configuration not stated)
    -6, -13, 106, 109
O=C1CCC(=O)N1CCc1c[nH]c2ccc(OCc3ccccc3)cc12
    -16, -34, 103, 103
O=C(O)c1cc(Nc2ccccc2C(=O)O)nc(Nc2ccccc2C(=O)O)n1
    1, 11, 101, 100
O=C(COC(=O)Cc1ccc(-c2ccccc2)cc1)NCc1ccco1
    7, ., 105, 99
O=C(c1ccc(=O)[nH]n1)N1CCN(c2ccccc2)CC1
    -5, -22, 100, 107
C=CCN1C(=O)/C(=C2\SC(C)=C(C)N2c2nccs2)S/C1=N\S(=O)(=O)c1ccccc1
    4, -11, 105, 99
COc1ccccc1CNn1c(C)nnc1SCc1ccccc1F
    -12, -12, 100, 103
COc1ccc(-c2nn(-c3ccc(C)c(Cl)c3)c3c2cnc2ccc(F)cc23)cc1OC
    -24, -29, 98, 105
O=C(c1cnn(-c2nc3ccccc3s2)c1)c1ccccc1O
    -1, -20, 104, 100
CN(C)C(=O)CSc1nc(C(C)(C)C)cs1
    5, -42, 102, 103
Cc1cc(C)c(C2=NON3N(C(=O)c4ccc(S(=O)(=O)N5CCOCC5)cc4)c4ccccc4N23)c(C)c1
    -2, -14, 103, 101
CCOC(=O)/C=C1\CCC(/C=N/Nc2ccccc2)=C1N1CCOCC1
    2, -32, 45, 242
CC(O)CNc1nc2ccccc2n1CC(=O)NC(C)C(C)C (configuration not stated)
    -7, -1, 104, 111
Clc1ccc(-c2ccn[nH]2)cc1
    -11, -17, 103, 113
COc1cc2c(cc1OC)CN(CC#N)CC2
    -4, ., 101, 102
CC(C)NC(=O)COc1ccc(Cl)cc1Cl
    ., -23, 100, 103
O=C(NCc1ccccc1)C(c1ccc(F)cc1)N(Cc1ccco1)C(=O)c1ccccn1 (configuration not stated)
    -2, 8, 102, 100
N#Cc1ccc(C(=O)CSc2n[nH]c(=O)n2Cc2ccco2)cc1
    -4, -56, 106, 100
N#CC1=C(NC(=O)c2ccc(Cl)c(Cl)c2)CCC1
    -17, -2, 101, 102
Cc1n[nH]c(C)c1CC(=O)NCCc1ccccc1
    -18, 0, 101, 103
O=C(NC1CCCCCC1)c1csc2c1CCCC2
    -18, -4, 100, 100
CCc1nonc1NC(=O)c1ccccc1
    -1, -2, 103, 105
COc1ccc(S(=O)(=O)N(CC(=O)NC2CC2)Cc2ccccc2)cc1
    -3, -4, 102, 101
CC(Oc1ccccc1F)C(=O)NC1CCS(=O)(=O)C1 (configuration not stated)
    -1, 6, 101, 102
O=C1c2ccccc2C(=O)N1CCN1C(=O)c2ccccc2C1=O
    -22, 5, 102, 104
O=C(C1CCC(Cn2c(=S)[nH]c3ccccc3c2=O)CC1)N1CCN(c2ccc(Cl)cc2)CC1 (configuration not stated)
    4, -19, 103, 101
Cc1cc(-n2c(SCC(=O)N3CCCC3)nc3n[nH]c(C)c3c2=N)ccc1Cl
    -27, -19, 102, 102
Cc1ccc(C)n1-c1ccc(-n2cccc2)cc1
    -6, -22, 102, 111

(list continues)
Values run as follows: Mtb MbtI inh, Mtb MenB inh, Polio RdRp inh, Polio RdRp inh intensity
Nn1c(C(=O)NCc2cccnc2)nc2ccccc2c1=O
    -6, -8, 101, 107
Cc1ccc(C)c(Oc2ncnc3c2oc2ccccc23)c1
    -1, -17, 97, 103
O=C(N/C(=C\c1ccc(F)cc1)C(=O)N1CCOCC1)c1ccccc1
    -7, -13, 103, 101
CN(C(=O)c1cccc(NC(=O)[C@H]2[C@@H]3C[C@@H]4[C@H]2C(=O)O[C@@H]4C3)c1)c1ccccc1
    -9, -1, 103, 106
O=C(OCC(=O)N(Cc1ccccc1)C1CCS(=O)(=O)C1)c1ccc(-n2cnnn2)cc1 (configuration not stated)
    -29, 10, 103, 98
Cc1cc(C(F)(F)F)nc(SCCNC(=O)c2ccccc2F)n1
    2, -3, 104, 100
O=C(COC(=O)/C=C/c1cccs1)Nc1nc2ccccc2s1
    1, 9, 105, 102
CCN(Cc1ccncc1)C(=O)CC1(CC(=O)O)CCCC1
    -9, ., 102, 95
CCN(CC)Cc1ccc(NC(=O)c2cccc(C)c2)cc1
    -4, -15, 102, 104
COC(=O)c1nc(S(C)(=O)=O)ncc1Cl
    12, -7, 96, 103
CCCNc1c(NS(=O)(=O)c2ccc3[nH]c(=O)oc3c2)c(=O)oc2ccccc12
    3, 11, 101, 102
O=C(Cc1ccccc1)N=Nc1c(O)[nH]c2ccccc12
    -12, -72, 100, 103
CCOc1ccc(C)cc1S(=O)(=O)n1c(C)nc2ccccc21
    -9, -13, 101, 103
Cc1cc(C)nc(SC2=C(Nc3ccc(O)cc3)C(=O)N(Cc3ccccc3)C2=O)n1
    -3, -34, 101, 105
COc1cc2c(cc1O)C(C)NCC2 (configuration not stated)
    8, -23, 100, 100
CCCN1Cc2cccc(C(=O)Nc3ccc(S(=O)(=O)N4CCCCCC4)cc3)c2C1=O
    2, -1, 99, 103
CCN(Cc1nnc(-c2ccccc2)o1)C1CCCCC1
    -7, 4, 101, 102
CSc1ncccc1C(=O)OCc1cccc(C(F)(F)F)c1
    -7, ., 99, 105
CC(=O)Oc1ccc(OC(C)=O)c(S(=O)(=O)c2ccc(Cl)c(Cl)c2)c1
    -7, -15, 104, 109
CCOc1ccc(OCCCCN(C)C)cc1
    1, -30, 101, 100
Cc1ccc(CNc2ccc3c(c2)ncn3C2CCCCC2)cc1
    -76, -10, 100, 103
CC1(C)CNC(=O)c2sc(NC(=O)c3ccccc3Cl)nc2C1
    ., -15, 101, 107
Cc1ccccc1Cn1nc(-c2ccc3c(c2)OCO3)ccc1=O
    -4, -14, ., .
CC(C)c1ccc(CNC(=O)c2ccc(=O)[nH]c2)cc1
    ., 9, 98, 106
CC(=O)Nc1cccc(-c2csc(Nc3cccc(O)c3)n2)c1
    ., -7, 101, 100
Cc1c2c(n3c(nc4ccccc43)c1C#N)N(Cc1cccnc1)CC2
    3, 14, 98, 101
COc1ccccc1NC(=O)C(C)Nc1ccccc1SC (configuration not stated)
    0, -23, 100, 96
CCC(C)c1ccc(-n2c(=O)c3ccccc3n3c(SCC(=O)NC)nnc23)cc1 (configuration not stated)
    32, -32, 101, 90
COCc1cc(C)nc2sc3c(c12)NCN(c1ccccc1)C3=O
    5, 21, 100, 99
CC1CN=C(N(C(=O)Nc2ccccc2)c2cccc(C(F)(F)F)c2)S1 (configuration not stated)
    -8, -22, 99, 102
Cc1ccc(OC(=O)c2cc3c(C)nn(-c4ccccc4)c3s2)cc1
    0, 15, 100, 100
N#Cc1c(N)n(CCN)c2nc3ccccc3nc12
    i, -82, 114, 174
COc1ccc(S(=O)(=O)N(Cc2cc3cc4c(cc3[nH]c2=O)OCCO4)C2CCCC2)cc1
    16, 12, 103, 102
O=C(NC1CCCC1)c1ccc2c(=O)n(Cc3ccco3)c(=O)n(Cc3cccc(Cl)c3)c2c1
    -1, -23, 99, 106
O=C1N=C(N2CCCCC2)S/C1=C\c1cccs1
    ., -9, 107, 97
Cc1c(OCc2ccc(C(=O)O)o2)ccc2c(-c3ccccc3)cc(=O)oc12
    11, -16, 103, 102
O=C(CN(Cc1ccco1)C(=O)c1cc(=O)[nH]c2ccccc12)Nc1ccccc1C(F)(F)F
    15, -1, 104, 107
CCC(C(=O)Nc1ccc(N2CCOCC2)cc1)c1ccccc1 (configuration not stated)
    -5, -26, 104, 99
CCOc1ccc(OCC(=O)OC(C)C(=O)Nc2ncc(Cl)cc2Cl)cc1 (configuration not stated)
    19, 0, ., .
CCCC(C)NC1=NCCCCC1 (configuration not stated)
    -16, -23, 101, 101
CS(=O)(=O)Nc1ccc(-c2n[nH]c(=S)n2-c2ccccc2)cc1
    -294, -29, 101, 102
COc1ccc(OCCSc2ncn[nH]2)cc1
    4, 8, 102, 98
O=C(OCN1C(=O)c2ccccc2C1=O)c1ccccc1O
    -77, -15, 102, 110
c1ccc2sc(N3CN(CCN4CCOCC4)CN(c4nc5ccccc5s4)C3)nc2c1
    -2, 11, 100, 106
COc1cccc(NC(=O)CCN2CC(C)CC(C)C2)c1 (configuration not stated)
    -7, -15, 100, 103
CCCNC(=O)N1CCCCC1C (configuration not stated)
    12, 7, 102, 103
O=c1oc2ccccc2c2c1ncn2-c1ccccc1
    8, -29, 102, 105
FC(F)(F)C1=Nc2ccccc2N(c2ccc(Cl)c(Cl)c2)C1
    ., 5, 105, 103
Cc1cnc(C(=O)OCc2cc(=O)n3ccsc3n2)cn1
    0, -8, 103, 104
CC(=O)NCCNc1nc(-c2cccnc2)nc2ccccc12
    0, -13, 101, 106
CC(C)C1Nc2ccc(C(=O)O)cc2C2C=CCC21 (configuration not stated)
    ., -13, 80, 139
CC1=C(C(=O)C(F)(F)F)CCC(=O)N1C1CCCCCC1
    -3, -27, 98, 95
CC1CCCN(C(=O)c2cc3ccccc3oc2=O)C1 (configuration not stated)
    ., -16, 103, 103
CCCCCCCc1nc2c(=O)[nH]c3ccccc3c2o1
    66, -15, 102, 101
CCCCOc1ccc(C(=O)OC(C)CN(C)C)cc1 (configuration not stated)
    -2, 12, 100, 102
Cn1nc(-c2ccc(Br)s2)c(Br)c1C(F)(F)F
    4, 14, 104, 104

A second format for part of the listing above.
CC1CCCN(C(=O)c2cc3ccccc3oc2=O)C1 (configuration not stated)
  Mtb MbtI inh: .	Mtb MenB inh: -16	Polio RdRp inh: 103	Polio RdRp inh intensity: 103
CCCCCCCc1nc2c(=O)[nH]c3ccccc3c2o1
  Mtb MbtI inh: 66	Mtb MenB inh: -15	Polio RdRp inh: 102	Polio RdRp inh intensity: 101
CCCCOc1ccc(C(=O)OC(C)CN(C)C)cc1 (configuration not stated)
  Mtb MbtI inh: -2	Mtb MenB inh: 12	Polio RdRp inh: 100	Polio RdRp inh intensity: 102
Cn1nc(-c2ccc(Br)s2)c(Br)c1C(F)(F)F
  Mtb MbtI inh: 4	Mtb MenB inh: 14	Polio RdRp inh: 104	Polio RdRp inh intensity: 104

Screens deposited in PubChem BioAssay by ICCB-Longwood Screening Facility, Harvard Medical School.
